Screens (PubChem BioAssay)
FGF22 binding = binders of human FGF22 protein, primary screen, FGF22 synaptogenesis inhibitor project, biophysical, thermal shift, single point; Fibroblast growth factor 22 (Homo sapiens), Q9HCT0; recombinant FGF22 thermal shift, SYPRO orange fluorescence; percent of sucrose octasulfate shift, DMSO zero; calls only at 9.99 µM; 340,000 compounds, 1.5% hits;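 active = melting point raised past a set limit in the mean and every replicate; three in four hits are not shown here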
HNF4A DNA FP = change in binding of human HNF4A to DNA, primary screen, biochemical, fluorescence polarization, FITC-DNA | AID 1224865, 2016 | Hepatocyte nuclear factor 4-alpha (Homo sapiens), P41235 | 360,000 compounds, 0.3% hits | activity change, % at 10 µM | 1 h; in the data active = activity change above about 30%, passing the limit was not always enough;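 note: controls were the assay level and a saturating level of protein; the project sought stronger binding though the title names inhibitors; some compounds called inactive have numbers as strong as hits; positive values seem to mean higher polarization but the record does not say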
LANA-H2A inh = blockers of LANA interaction with H2A/H2B – biochemical, FP readout, HTS, primary screen. Protein LANA1 (Human herpesvirus 8 type P (isolate GK18)), Q9QR71. cell-free LANA-H2A/H2B peptide, fluorescence polarization. inhibition, % (concentration not given with the values). 320,000 compounds, 0.6% hits; in the data active = inhibition mostly above about 10%, no sharp cut-off; inactive = mostly below about 6.7%;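 note: stock transfer was 7.5 nL into about 10 µL; 0% = median of vehicle wells and 100% = median of positive control wells; one replicate is shown; the record names a cut of 25% in any replicate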
Target sequence (Q9QR71 whole entry, looked up): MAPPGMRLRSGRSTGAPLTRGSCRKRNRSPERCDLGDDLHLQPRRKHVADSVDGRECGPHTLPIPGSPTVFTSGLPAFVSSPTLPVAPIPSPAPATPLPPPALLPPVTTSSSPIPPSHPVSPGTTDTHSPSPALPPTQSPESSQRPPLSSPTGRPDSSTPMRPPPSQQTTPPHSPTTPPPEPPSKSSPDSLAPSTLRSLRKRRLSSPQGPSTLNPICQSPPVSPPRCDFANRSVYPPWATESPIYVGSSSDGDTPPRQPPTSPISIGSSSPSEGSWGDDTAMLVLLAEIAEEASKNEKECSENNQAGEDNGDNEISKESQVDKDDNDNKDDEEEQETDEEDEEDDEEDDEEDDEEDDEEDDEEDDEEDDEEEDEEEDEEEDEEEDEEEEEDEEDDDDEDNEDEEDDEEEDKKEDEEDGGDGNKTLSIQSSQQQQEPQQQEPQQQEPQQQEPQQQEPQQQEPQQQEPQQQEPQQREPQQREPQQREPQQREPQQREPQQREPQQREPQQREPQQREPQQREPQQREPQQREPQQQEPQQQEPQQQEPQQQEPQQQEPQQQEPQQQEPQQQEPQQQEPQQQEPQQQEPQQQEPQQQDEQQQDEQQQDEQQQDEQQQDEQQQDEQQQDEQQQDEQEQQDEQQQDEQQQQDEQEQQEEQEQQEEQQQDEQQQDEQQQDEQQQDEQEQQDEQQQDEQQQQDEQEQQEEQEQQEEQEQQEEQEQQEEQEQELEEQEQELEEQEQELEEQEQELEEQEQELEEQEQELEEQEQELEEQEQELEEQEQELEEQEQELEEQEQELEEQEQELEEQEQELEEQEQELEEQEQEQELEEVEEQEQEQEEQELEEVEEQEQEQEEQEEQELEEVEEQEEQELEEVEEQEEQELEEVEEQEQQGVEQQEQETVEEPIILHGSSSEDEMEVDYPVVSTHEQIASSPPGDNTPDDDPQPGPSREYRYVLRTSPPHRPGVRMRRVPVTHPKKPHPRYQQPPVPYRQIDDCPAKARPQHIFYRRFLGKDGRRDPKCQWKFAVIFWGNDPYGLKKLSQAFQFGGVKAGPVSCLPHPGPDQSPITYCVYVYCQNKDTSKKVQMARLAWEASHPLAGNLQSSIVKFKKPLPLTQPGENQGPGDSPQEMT
B2AR ag = beta2AR agonists driving receptor internalization, primary screen, cell-based, FAP fluorogen, flow cytometry. Beta-2 adrenergic receptor (Homo sapiens), P07550. Am2.2-beta2AR cells; reference of the scale not given here. response, % (no concentration beside the values). 340,000 compounds, 0.43% hits. AID 504454, 2011;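 active = response above a set limit, near 3 SD of response in nonfluorescent compounds, cut at about 42% in these data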;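 note: stock transfer was 100 nL into about 11 µL; a reference agonist was the positive control; negative values mostly stem from fluorescent compounds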
Ecoli growth = E. coli growth inhibition, primary screen, OD600 | Escherichia coli growth, 23 h; hits give low values | OD600 absorbance (concentration not given with the values) | 330,000 compounds, 0.21% hits;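 active = OD600 absorbance below the run mean of sample wells minus 3.6 SD, in any replicate, cut at about 0.56 in these data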;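 note: stock transfer was 300 nL into about 60 µL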
ALR inh = inhibitors of human ALR sulfhydryl oxidase, primary screen, biochemical, H2O2 detection, HRP-luminol luminescence, single point. purified ALR, DTT oxidation. inhibition, % (test concentration not listed). 290,000 compounds, 3.8% hits. AID 485317, 2010;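 active = mean and each replicate at 75% or more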;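 note: stock transfer was 7.5 nL into about 7.5 µL; 0% = neutral wells and 100% = wells with inactivated enzyme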
UCH37 DUB inh = inhibitors of human UCH37 deubiquitinase, primary screen, biochemical, Ub-AMC cleavage, fluorescence. Ubiquitin carboxyl-terminal hydrolase isozyme L5 (Homo sapiens), Q9Y5K5. purified proteasome/UCH37. inhibition, % (no concentration beside the values). 330,000 compounds, 0.33% hits. AID 588478, 2011;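 active = mean of two replicates above 20%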;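 note: 0% = compound-free wells with enzyme and 100% = wells lacking proteasome; stock transfer was 100 nL into about 20 µL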
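Material: Human UCH37 enzyme supplied as purified proteasome complex | Schedule: 30 min compound-proteasome preincubation then 25 min substrate reaction, room temperature | Detection: AMC fluorescence from Ub-AMC cleavage, excitation 355 nm, emission 460 nm | Benchmarks: Wells without proteasome as full block, compound-free enzyme plus substrate as uninhibited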
Starred values were filed as active, the others as inactive; i = inactive; . = not tested or not shown; & = joins results of further samples. A portion of the library; rates above refer to the full screens.

SMILES | FGF22 binding | HNF4A DNA FP | LANA-H2A inh | B2AR ag | Ecoli growth | ALR inh | UCH37 DUB inh
CC(SCc1ccccc1)C(=O)N/N=C/c1ccc(OCC(=O)NCc2ccco2)cc1 (stereo unspecified) | . | 0.3 | 1.2 | 8 | . | -6 | .
O=C(NNC(=O)c1ccccc1Cl)c1ccco1 | i | 2.2 | -3.8 | 1 | 0.68 | 1 | 3.3
CCOc1ccc(-n2c(=O)c3c(C)c(C(=O)N(C)C)sc3n(CC(=O)Nc3ccccc3F)c2=O)cc1 | i | -2.9 | 0.5 | -8 | 0.71 | -4 | -0.7
O=C(CSCc1ccccc1Br)N/N=C/c1ccc2c(c1)OCO2 | . | -2.9 | 2.8 | 0 | . | -9 | .
Cc1cccc(OCC(=O)NCCCNC(=O)c2cnccn2)c1 | i | 0.8 | -4.0 | 5 | 0.63 | -6 | 5.1
COc1ccc(/C=C(/NC(=O)c2cccs2)C(=O)NCc2ccco2)cc1OC | i | -3.2 | 1.8 | 6 | 0.64 | . | 8.0
CCc1ccc(CNC(=O)c2ccc(OC)c(OC3CCN(C(C)C)CC3)c2)nc1 | i | 0.2 | -6.4 | -6 | 0.69 | -13 | 3.1
COCCCNC(=O)CCCC(=O)NCCCOC | . | 3.3 | 3.4 | -1 | 0.69 | 2 | -1.2
COC(=O)c1cn(S(=O)(=O)c2ccccc2)c2ccccc12 | i | -2.5 | 3.5 | -1 | 0.68 | . | 0.4
O=C(O)CN1C(=O)/C(=C\c2cccc(OC(=O)c3ccco3)c2)SC1=S | i | 12 | -0.5 | -8 | 0.69 | 21 | 12
Fc1cccc(Cl)c1CNn1cn[nH]c1=S | i | -2.5 | -2.4 | -4 | 0.66 | 82* | 5.0
CCN(C(=O)CSc1nncs1)c1c(N)n(Cc2ccccc2)c(=O)[nH]c1=O | . | -1.2 | -2.7 | -3 | 0.69 | . | 3.0
CCCNCC1C(Oc2ccc(Cl)cc2)C(=O)N1c1ccccc1C (stereo unspecified) | i | 3.9 | -1.6 | -4 | 0.7 | 1 | -23
Cc1[nH]c2ccc(C(=O)N3CCN(c4cccc(Cl)c4)CC3)cc2c1C | i | 0.9 | 2.1 | 7 | 0.7 | 1 | 3.7
COc1cc(C)nc(Nc2nc(C)c(C(C)=O)s2)n1 | . | 4.2 | -4.4 | 1 | 0.68 | -7 | 6.8
COc1ccc(S(=O)(=O)N2CCN(c3ncccn3)CC2)cc1OC | i | 6.1 | 1.2 | -6 | 0.65 | -17 | 2.0
O=C(Cc1ccc(Cl)cc1)Nc1ccc(NC(=O)c2cccs2)cc1 | i | -1.5 | 1.7 | -9 | 0.68 | -8 | -4.7
O=C(c1ccco1)N(Cc1cc2ccccc2[nH]c1=O)CC1CCCO1 (stereo unspecified) | . | 2.2 | 1.6 | 6 | 0.65 | 1 | 1.7
O=C(NNC1CC(=O)N(c2ccc(Br)cc2)C1=O)c1cccnc1 (stereo unspecified) | i | 0.4 | 2.7 | -3 | 0.7 | -14 | 3.1
Cc1ccc[n+](CC(=O)c2ccc(Br)cc2)c1C | i | -1.5 | 1.0 | 3 | 0.65 | 11 | 1.0
CC(C)CC1Nc2ncnc(N3CCN(c4ccccn4)CC3)c2N(Cc2ccc(Br)cc2)C1=O (stereo unspecified) | i | 0.0&1.6 | -1.2 | -5 | 0.68 | 2 | 3.9
CC(C)OP(=O)(c1ccc(N(C)C)cc1)C(O)c1ccc(N(C)C)cc1 (stereo unspecified) | i | -0.5 | 4.7 | 7 | 0.66 | 98* | 0.5
CCCNC(=O)C1(S(=O)(=O)c2ccccc2)CC=CC1 | i | 2.5 | 0.7 | -2 | 0.69 | . | 5.8
COc1ccc([C@@H]2[C@@H]3C(=O)N(C(C)(C)C)C(=O)[C@@H]3[C@]3(C)C(=O)N(c4ccc(C)cc4)C(=O)N23)cc1 | i | 3.7 | 1.7 | -8 | 0.79 | -3 | 5.3
COc1ccc(-c2cc3nc(C)c(CCC(=O)NCc4ccco4)c(C)n3n2)c(OC)c1 | . | -0.6 | -4.6 | -5 | 0.73 | -6 | -43
Cc1ccccc1C(=O)NC1CCN(C(=O)NCc2ccccc2)CC1 | i | -0.4 | 1.5 | 0 | 0.67 | 0 | 6.3
CCOC(=O)C1=C(COC(=O)/C=C/c2ccc(Cl)cc2)NC(=O)NC1C (stereo unspecified) | i | 1.7 | -5.7 | 3 | 0.72 | -1 | 4.7
CCO[C@H]1OC(C(=O)NCc2ccccc2)=C[C@@H](C2CCCCC2)[C@@H]1CCCO | i | -2.3 | 4.5 | -5 | . | 2 | 0.8
N/C(=N\OC(=O)c1ccccc1[N+](=O)[O-])c1ccccn1 | i | -1.6 | 2.2 | -9 | . | -14 | .
CCN=C1SC(CC(=O)Nc2ccccc2)C(=O)N1CC (stereo unspecified) | i | -0.6&0.0 | 4.5 | 0&-8 | 0.69&0.73 | -15 | 3.5&-2.4

Given with each value named: part of the list above
molecule: COc1ccc(-c2cc3nc(C)c(CCC(=O)NCc4ccco4)c(C)n3n2)c(OC)c1
  FGF22 binding: .; HNF4A DNA FP: -0.6; LANA-H2A inh: -4.6; B2AR ag: -5; Ecoli growth: 0.73; ALR inh: -6; UCH37 DUB inh: -43

molecule: CCCNC(=O)C1(S(=O)(=O)c2ccccc2)CC=CC1
  FGF22 binding: i; HNF4A DNA FP: 2.5; LANA-H2A inh: 0.7; B2AR ag: -2; Ecoli growth: 0.69; ALR inh: .; UCH37 DUB inh: 5.8

molecule: N/C(=N\OC(=O)c1ccccc1[N+](=O)[O-])c1ccccn1
  FGF22 binding: i; HNF4A DNA FP: -1.6; LANA-H2A inh: 2.2; B2AR ag: -9; Ecoli growth: .; ALR inh: -14; UCH37 DUB inh: .

Later entries
SMILES | FGF22 binding | HNF4A DNA FP | LANA-H2A inh | B2AR ag | Ecoli growth | ALR inh | UCH37 DUB inh
Cc1ccc(NC(=O)CS(=O)c2ccccc2N)c(C)c1 (stereo unspecified) | i | 1.5 | 3.3 | -7 | 0.72 | -5 | 6.0
O=C(Nc1ccon1)c1nc[nH]c1C(=O)N1CCc2ccccc2C1 | i | -0.6 | 1.3 | -11 | 0.72 | -2 | 1.8
Cc1sc(NC(=O)CCCCC(=O)Nc2sc(C)c(C)c2C(=O)O)c(C(=O)O)c1C | i | -5.4 | -1.5 | -1 | 0.68 | 1 | 6.4
CCCOc1ccc(N2CC(C(=O)Nc3ccccc3F)CC2=O)cc1 (stereo unspecified) | . | 2.5 | 0.0 | -4 | 0.74 | -5 | -1.3
Clc1ccc(-c2csc(N3CCc4ccccc4C3)n2)cc1 | . | 1.4 | -1.4 | -6 | 0.76 | -3 | 1.0
Cc1ccc(C(=O)Nc2ccccc2C(=O)N2CCCC2)cc1[N+](=O)[O-] | . | -1.0 | -4.2 | -3 | 0.67 | -1 | 4.7
Cc1nc2c3c4c(sc3n3c(SCC(=O)NCc5ccco5)nnc3n2n1)COC(C)(C)C4 | . | 1.4 | . | 5 | 0.82 | . | 8.0
COC(=O)c1ccc2c(=O)n(CCCN3CCOCC3)c(=S)[nH]c2c1 | . | -1.3 | -2.5 | -2 | 0.64 | -5 | 1.8
COc1ccc(COC(=O)C2=C(C)NC(=O)NC2c2ccc(OC)c(OC)c2)cc1 (stereo unspecified) | i | 0.6 | 1.1 | -5 | 0.66 | . | 1.1
Cc1ccc(C(=O)N2CCN(c3ccc(C(F)(F)F)cn3)CC2)cc1 | . | -1.7 | -1.5 | 0 | 0.73 | 7 | -0.2
Cc1nc(C(F)(F)F)ccc1C(=O)NCC(O)c1ccccc1 (stereo unspecified) | i | -1.3 | -1.9 | -4 | 0.65 | . | 1.6
Cc1cccc(NC(=O)c2ccc(S(=O)(=O)N(C)c3ccccc3)cc2)n1 | i | 1.1 | -0.3 | 8 | 0.7 | -13 | 0.2
Cc1ccc(CNC(=O)C(=O)NCCC2CCCCN2S(=O)(=O)c2ccccc2)cc1 (stereo unspecified) | . | -1.8 | -0.4 | -4 | 0.7 | 3 | 2.8
Cc1ccc(N2C(=O)c3n[nH]c(C)c3C2c2cccnc2)cc1 (stereo unspecified) | . | -0.7 | 0.7 | -3 | 0.72 | -7 | 6.9
Cc1nsc(Nc2ccc([N+](=O)[O-])cc2)c1C#N | i | 3.7 | -5.7 | 6 | 0.67 | 0 | 4.7
CCN(C(=O)COC(=O)c1cc(-c2cccc3ccccc23)nc2ccccc12)C1CCS(=O)(=O)C1 (stereo unspecified) | . | -2.1 | 5.6 | -7 | 0.66 | . | 4.4
CC(=O)Nc1c(C(=O)O)ccc(C)c1OCc1ccccc1 | i | 2.0 | . | 5 | 0.67 | . | -0.3
O=C(CCl)NNC(=O)c1c(O)c2ccccc2[nH]c1=O | i | 1.8 | -0.9 | 1 | 0.56 | 6 | 3.3
CC(C)n1nnnc1SCC(=O)N1CCN(Cc2ccc3c(c2)OCCO3)CC1 | i | 5.6 | -4.9 | 12 | 0.7 | -16 | 1.6
O=C(CCC(=O)c1ccc(F)cc1)Nc1cccc(Br)c1 | i | 18 | 1.3 | 6 | 0.7 | 1 | 1.9
Cc1ccc(NC(=S)N(CCN2CCOCC2)Cc2cc3cc4c(cc3[nH]c2=O)OCCO4)cc1 | i | 0.4 | 3.1 | -3 | 0.71 | . | -21
Cc1ccc(OCC(=O)Nc2ccc(CN3CCCCC3)cc2)c(C)c1 | i | 4.3 | 4.9 | 12 | 0.65 | -8 | 0.7
Cc1cc(C)nc(NC(=O)CSc2nccc(C)n2)n1 | i | 2.9 | -1.1 | -2 | 0.68 | -8 | 1.0
COc1cc2sc3ccc(C#Cc4ccccn4)cc3c(=O)c2cc1OC | i | 175 | -1.4 | 20 | 0.7 | -18 | -2.3
Cc1cccc(NC(=O)CSc2nc3ccc(N4C(=O)c5ccccc5C4=O)cc3s2)c1C | . | 0.8 | -3.0 | -6 | 0.72 | -15 | 0.7
Cc1c(C(=O)N/N=C/c2ccncc2)no[n+]1[O-] | i | -6.0 | -0.8 | -1 | . | -2 | .
C=CCn1c(SCC(=O)NC2CCCC2)nc2scc(-c3ccco3)c2c1=O | . | -11 | 0.1 | -8 | 0.81 | 1 | -5.7
CCOC(=O)c1c(/N=C/N(C)C)sc(C(=O)OC)c1C | i | -4.4 | -3.9 | 2 | . | -12 | .
Nc1ncc(Br)cc1S(=O)(=O)N1CCCCCC1 | i | 1.3 | 3.3 | -10 | 0.65 | -1 | -0.1
Cc1ccc(S(=O)(=O)N2CCCCCC2)cc1C(=O)NCc1ccccn1 | i | 1.0 | -0.3 | 6 | 0.69 | -5 | 6.4
O=C(C1=C(Nc2ccccc2)c2ccccc2S(=O)(=O)N1)c1ccccc1 | i | 3.0 | 1.5 | 5 | . | 8 | .
NC(=O)NCCCC(=O)NCC(c1ccccc1Cl)c1c[nH]c2ccccc12 (stereo unspecified) | i | 2.8 | -3.4 | 4 | 0.67 | . | 4.5
C=CCNC(=O)c1ccccc1Cl | . | 4.1 | 4.4 | 5 | 0.67 | 0 | 0.2
CC(C)NC(=O)c1cc(C(=O)c2cc(Cl)ccc2O)coc1=N | . | 4.8 | 1.9 | 11 | 0.67 | -2 | -1.0
COc1cccc(C2c3c(oc4cc(C)c(C)cc4c3=O)C(=O)N2CCCN(C)C)c1 (stereo unspecified) | . | 1.6 | 0.7 | -15 | 0.72 | 20 | 2.4

Part of the list above, with two lines to a compound:
Results follow in this order: FGF22 binding, HNF4A DNA FP, LANA-H2A inh, B2AR ag, Ecoli growth, ALR inh, UCH37 DUB inh
> NC(=O)NCCCC(=O)NCC(c1ccccc1Cl)c1c[nH]c2ccccc12 (stereo unspecified)
→ i, 2.8, -3.4, 4, 0.67, ., 4.5
> O=C(C1=C(Nc2ccccc2)c2ccccc2S(=O)(=O)N1)c1ccccc1
→ i, 3.0, 1.5, 5, ., 8, .
